S aureus helic – blocks Staphylococcus aureus DNA helicase. purified S. aureus helicase, fluorescence unwinding assay; about half of the hits fall short of the stated cut. 120,000 compounds, 0.05% hits. inhibition, %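 (tested at about 80 µM)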;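 active means both duplicates at 50% or more, or one of them with a favoured structure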;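 further: 0% = mean of negative control wells and 100% = mean of positive control wells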
MgrA DNA FP – S. aureus MgrA-DNA binding modulation. fluorescence polarization. inhibition, %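 (about 10 µg/mL by stock and volumes)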. 84,000 compounds, 0.13% hits. AID 602314;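 active means above 50% in either of two replicates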;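 further: 0% = protein plus DNA without compound and 100% = DNA alone without protein; higher means less MgrA bound to DNA so lower polarization; one replicate is shown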
Active calls of the source: *; · = not tested or not shown. The list is partial. The share of hits here may be higher or lower than overall.

Preview:
SMILES	S aureus helic	MgrA DNA FP
C=CCn1c(SCC(=O)/C(C#N)=C2\Sc3ccccc3N2C)nc2ccccc2c1=O	-3	·
CN(C)S(=O)(=O)Nc1cccc(C(F)(F)F)c1	·	1.6
CCCCC(=O)Nc1c(-c2cccs2)nc2ccccn12	17	·

The list itself, repeating the preview:
SMILES	S aureus helic	MgrA DNA FP
C=CCn1c(SCC(=O)/C(C#N)=C2\Sc3ccccc3N2C)nc2ccccc2c1=O	-3	·
CN(C)S(=O)(=O)Nc1cccc(C(F)(F)F)c1	·	1.6
CCCCC(=O)Nc1c(-c2cccs2)nc2ccccn12	17	·
Cc1c(OCc2ccccc2)ccc2c(C(F)(F)F)cc(=O)oc12	12	-1.1
CC(C)c1cc(C(=O)O)n(C)n1	1	-4.7
CCN(c1ccccc1)S(=O)(=O)c1c[nH]c(C(=O)OC)c1	-26	·
COc1cccc2sc(=NC(=O)CC34CC5CC(CC(C5)C3)C4)n(C)c12	10	1.7
CSc1ncccc1C(=O)OCC(=O)c1ccccc1	-3	·
COC(=O)CNS(=O)(=O)c1ccc(F)cc1	12	-0.7
O=C(OC1CCCC1)c1ccccc1C(F)(F)F	-17	0.7
CC(C)(C#N)NC(=O)c1ccco1	0	·
COc1ccc(C2CC(=O)C3=C(C2)NC(C)=C(C(=O)OC(C)C)C3c2cc(Br)c(O)c(OC)c2)cc1 (centres undefined)	·	-2.0
N#Cc1c(N)nc2c(c1-c1cccnc1)CCCC2	·	-1.6
CC(C)N1C(=O)/C(=C\c2ccc(C(F)(F)F)cc2)N(C)C1=S	-1	·
CCOC(=O)Cc1nc(-c2ccc(Cl)cc2)n[nH]1	·	-1.8
CN(Cc1ccccc1NCC(=O)Nc1ccc2c(c1)OCCO2)C1CCCCC1	1	·
C=CCn1c(=N)n(CCO)c2ccccc21	8	2.1
COc1ccccc1C(=O)Nc1ccccn1	14	-0.7
O=C(NN1C(=O)CCC1=O)C(O)c1ccccc1 (centres undefined)	9	-0.2
CN1N=C(C(=O)Nc2nc(-c3ccccc3Cl)cs2)CCC1=O	-4	·
O=C(Nc1ccccc1NC(=O)c1cccs1)c1ccc(C(F)(F)F)cc1	11	-0.8
NNC(=O)CCc1nc2ccccc2[nH]1	-3	-0.9
CCC1(Cc2ccccc2)NC(=O)c2ccccc2O1 (centres undefined)	-11	2.3
CCC(=O)c1ccccc1OCC(=O)Nc1c(C)cccc1C	-12	-2.2
CC(C)(C)c1ccc(NC(=O)N2CCN(CCN3CCOCC3)CC2)cc1	8	·
CC1CCc2c(sc(NC(=O)C3CC(=O)N(Cc4ccco4)C3)c2C(N)=O)C1 (centres undefined)	-7	·
CCOC(=O)c1ccc(NC)c(N)c1	-43	·
COc1cc2c(cc1OC)CN(C(=O)C1CCCN1S(=O)(=O)c1ccc(F)cc1)CC2 (centres undefined)	-7	-0.5
CCOC(=O)N1CCN(C(=O)Cn2ncc3ccccc32)CC1	11	0.9
N#CC(C#N)=CNc1cc(C(F)(F)F)ccc1N1CCCC1	·	-2.5
CC(NC(=O)CSCc1cccs1)c1ccccc1 (centres undefined)	14	·
CC(=O)Nc1ccc(C(=O)COc2ncnc3sccc23)cc1	-13	·
CC(=O)Nc1ccc(C(=O)CSc2nc3ccccc3n2CC(=O)N2CCCC2)cc1	9	-1.5
CCOC(=O)C1=C(c2cccs2)OC(N)=C(C#N)C1c1cccnc1 (centres undefined)	10	2.9
Cc1nc(-c2cc(-c3nc(-c4ccc(Cl)cc4)no3)no2)cs1	·	-1.2
O=C(NCc1ccco1)c1ccc2c(c1)NC(=O)C1CCCN21 (centres undefined)	11	-1.8
Cc1nnc(SCCCC(=O)c2ccc(C(C)(C)C)cc2)s1	15	-0.8
O=C(NCCN1CCN(c2cccc(Cl)c2)CC1)c1nnc(-c2ccc(CN3CCc4ccccc4C3)cc2)o1	-24	·
O=c1[nH]c(-c2ccccc2)nc2ccsc12	·	-2.5
CCNS(=O)(=O)c1cc(C)ccc1-n1cnnn1	-4	0.8
Cc1ccc(-c2cn3cccnc3n2)cc1	·	0.2
CC(C)(C)N1COc2ccc3c4c(c(=O)oc3c2C1)CCCC4	27	·
CCOC(=O)C1=C(C)N=c2s/c(=C\c3c[nH]c4ccccc34)c(=O)n2C1c1ccc(OC)c(OC)c1 (centres undefined)	·	-0.2
CC(C)CN(C(=O)c1cccnc1)c1nnc(Cn2nnc3ccccc32)s1	2	3.3
COc1cc(C2CC(=O)NC(SCC(=O)Nc3ccc(Br)cc3)=C2C#N)ccc1O (centres undefined)	·	1.4
CCN(CC)CCN=Cc1c(O)[nH]c(=O)[nH]c1=O	·	3.0
CCOC(=O)c1ccc(NC(=S)N(Cc2ccccc2)C(C)C)cc1	·	0.4
CCN(CC)/C(=N/S(=O)(=O)c1ccc(Cl)cc1)c1ccccc1	12	-0.8
c1coc(-c2nc3ccccc3s2)c1	11	·
NC(=O)Cn1c(=O)sc2ccccc21	3	·
COc1cccc(C#N)c1	2	·
CC(C)NC(=O)c1ccc(F)cc1	4	1.9
Cc1c(NC(=O)CN2C(=O)c3ccccc3C2=O)c(=O)n(-c2ccccc2)n1C	3	-1.0
c1ccc(-c2cn3c(n2)SCC3)cc1	-9	·
COC(=O)c1ccc(CSC2=NCCS2)cc1	13	·
CS(=O)(=O)c1ccc(C2=C(c3ccccc3)C(=O)OC2)cc1	·	1.8
COc1ccc(NC(=S)NCCn2cc(Br)cn2)cc1OC	0	-0.3
NCC[C@@H](O)C(=O)N[C@@H]1C[C@H](N)[C@@H](O[C@H]2O[C@H](CN)[C@@H](O)[C@H](O)[C@H]2O)[C@H](O)[C@H]1O[C@H]1O[C@H](CO)[C@@H](O)[C@H](N)C1O (some centres undefined)	·	3.1
Clc1ccc(Sc2c(Cl)cncc2Cl)cc1	·	0.0
COc1ccccc1C(=O)COC(=O)CSc1nnc(-c2ccco2)n1Cc1ccccc1	27	·

5 entries from above, with values under each structure:
Every second line gives: S aureus helic	MgrA DNA FP
> CS(=O)(=O)c1ccc(C2=C(c3ccccc3)C(=O)OC2)cc1
    ·	1.8
> COc1ccc(NC(=S)NCCn2cc(Br)cn2)cc1OC
    0	-0.3
> NCC[C@@H](O)C(=O)N[C@@H]1C[C@H](N)[C@@H](O[C@H]2O[C@H](CN)[C@@H](O)[C@H](O)[C@H]2O)[C@H](O)[C@H]1O[C@H]1O[C@H](CO)[C@@H](O)[C@H](N)C1O (some centres undefined)
    ·	3.1
> Clc1ccc(Sc2c(Cl)cncc2Cl)cc1
    ·	0.0
> COc1ccccc1C(=O)COC(=O)CSc1nnc(-c2ccco2)n1Cc1ccccc1
    27	·

Going on with the list.
SMILES	S aureus helic	MgrA DNA FP
COc1ccc(N2C(=O)CCC(C(=O)NC(C)C)C2c2ccc(OC)c(OC)c2)cc1 (centres undefined)	9	·
CN(C)C(CNC(=O)c1cccs1)c1cccnc1 (centres undefined)	-9	·
Cc1cc2ccccc2c(=O)n1CC(=O)NCC(=O)NCC1COc2ccccc2O1 (centres undefined)	8	3.0
Cc1cccc(-c2nc3ccccc3n2CCC(C)C)c1	12	4.7
COC(=O)CNC(=O)c1cc(-c2ccccc2)nc2ccccc12	-5	·
S=C(c1c[nH]c2ccccc12)N1CCCC1	9	2.5
CCCSc1sc(C(=O)OCC)c2c1C(=O)CCC2	·	0.2
O=C(NCc1cccnc1)NC(=O)c1ccccc1	7	-2.3
O=C(c1cc(-c2ccc(Cl)cc2)n[nH]1)N1CCN(C(=O)c2ccco2)CC1	8	-0.6
CCCCNC(=O)C1CCN(C(=O)c2cccc(Cl)c2)CC1	-6	1.2
COCCOc1cc(COC)nc(-c2cccc(C)c2)n1	36	·
CNC(=S)N/N=C/c1ccc(Cl)c(Cl)c1	·	1.0
CN(CC(=O)NC(=O)Nc1ccc2c(c1)OCCO2)C1CCCCC1	-2	·
C=CCc1c(O)c(CC)cc2c(C)cc(=O)oc12	16	-1.6
Cc1ccc(NC(=O)CC(NCc2cccnc2)C(=O)O)cc1C (centres undefined)	-9	·
CS(=O)(=O)N(CCc1ccccc1)CC(=O)NCc1ccccc1	6	-1.4
N#Cc1ccc(-c2csc(-c3ccno3)n2)cc1	·	-1.1
CC(C)Nc1ncnc2c1cnn2C	·	1.4
CCOc1cc2[nH]c(=O)n(CCC(=O)NC3CCCCC3C)c(=O)c2cc1OCC (centres undefined)	0	-1.7
CCOC(=O)c1sc(NC(=O)CCOc2ccccc2)cc1C	-15	·
O=C(CSc1n[nH]c(C(F)(F)F)n1)c1ccccc1	·	-2.3
CCOC(=O)C1CCN(C(C(=O)Nc2ccc(F)cc2)c2ccccc2)CC1 (centres undefined)	-4	·
Cn1c(SCC(=O)NC2(C#N)CCCCC2)nc2sc3c(c2c1=O)CCCC3	21	·
Cc1ccccc1S(=O)(=O)Cc1ccc(C(=O)NCCN(C)C)o1	2	·
COc1ccc(C2C(C#N)=C(N)SC3C(=O)N(c4ccc(Br)cc4)C(=O)C32)cc1 (centres undefined)	5	1.8
c1ccc2[nH]c(-c3nc4ccccc4o3)nc2c1	17	·
CN(c1nc2ccccc2nc1NS(=O)(=O)c1cccs1)C1CCS(=O)(=O)C1 (centres undefined)	-22	·
Cc1ccc(C2=NC3(CCN(C(=O)C4CCCC4)CC3)NC2=O)cc1C	-23	·
CCOc1ccc(/C=C2\C(=O)NC(=S)N(c3ccc(Cl)cc3)C2=O)c(OCC)c1	·	2.7
Cc1ccc(S(=O)(=O)Nc2csc(C)c2C(=O)O)cc1	·	1.6
CCOC(=O)C1CCN(c2nc3c(S(=O)(=O)c4ccc(C)c(C)c4)nnn3c3ccsc23)CC1	17	·
O=C(CCCc1c[nH]c2ccccc12)N1CCCCCC1	13	-0.9
Cc1ccc(C=Nn2nnnc2N)s1	11	-1.5
CCN(CC)S(=O)(=O)c1ccc(C(=O)Nc2c3c(nn2-c2ccc(OC)cc2)CSC3)cc1	·	3.6
O=C(CSCc1nc2scc(-c3cccs3)c2c(=O)[nH]1)Nc1nnc(C2CC2)s1	-12	·
Cc1c(/C=N/n2cnnc2)[nH]n(-c2ccccc2)c1=O	6	-2.1
CC1CCCCC1NC(=O)COC(=O)c1nc(Cl)ccc1Cl (centres undefined)	12	·
Nc1cc(OC(=O)c2ccccc2)nn1S(=O)(=O)c1ccccc1	10	3.1
Cc1sc2ncnc(N(C)C)c2c1C	12	-2.9
O=C(COc1ncnc2ccccc12)NC(c1ccccc1)c1ccccc1	-8	0.1
N#Cc1nc2c(nc1C#N)-c1ccccc1C2=O	21	0.2
CC(C)c1nc2ccccn2c1NC1CCCCC1	1	2.1
COc1ccc(N2CC(=O)N(/N=C/c3ccc(N(C)C)cc3)C2=S)cc1	-2	-5.6
O=C(Oc1ccc(Cl)cc1)c1ccc2nsnc2c1	-4	·
Cc1ccccc1-c1cc(C(=O)O)c2c(-c3ccccc3)[nH]nc2n1	-13	·
Cc1cc(=O)n2[nH]c(C(=O)NCc3ccccc3)nc2n1	2	-2.6
N#CC(c1cccs1)N1CCOCC1 (centres undefined)	·	-0.7
O=C(Nc1ccccn1)c1cc2c(s1)CCCC2	-3	0.8
CN1C(=O)CC2(CC(=O)N(Cc3ccccc3)C2)C1=O (centres undefined)	4	1.0
CC1=C(C#N)C(c2ccccc2)C2=C(CC(c3ccccc3)CC2=O)N1 (centres undefined)	4	2.2
COC(=O)c1ccc(COC(=O)C2=NNC(=O)CC2)cc1	-5	·
CCOC(=O)COc1cc(O)c2c(=O)cc(-c3ccccc3)oc2c1	·	0.2
O=S(=O)(Nc1ccc(Oc2cc(C(F)(F)F)cc(C(F)(F)F)c2)cc1)c1ccc(Cl)cc1	·	-0.7
COC(=O)c1sc(C(C)(C)C)cc1CS(=O)(=O)c1ccccn1	·	0.6
O=C(NNC(=O)c1ccccc1[N+](=O)[O-])c1ccc(Cl)cc1	·	-1.6
CC(Sc1ncnc2sccc12)C(=O)Nc1ccc(S(N)(=O)=O)cc1 (centres undefined)	3	·
NC(=O)C1CCN(c2ncc(C(F)(F)F)cc2Cl)CC1	·	1.0
CC1(C)CC2CC(C)(CN2C(=O)CSc2nc3ccccc3o2)C1 (centres undefined)	2	·
COc1ccc(CC(=O)NCCSc2c[nH]c3ccccc23)cc1	-4	·
CN(Cc1nccn1C)c1ncnc2sc3c(c12)CCCC3	-9	·

Ordered by value in S aureus helic (falling): 6 of the compounds above.
SMILES	S aureus helic	MgrA DNA FP
N#Cc1nc2c(nc1C#N)-c1ccccc1C2=O	21	0.2
CC1(C)CC2CC(C)(CN2C(=O)CSc2nc3ccccc3o2)C1 (centres undefined)	2	·
CC(C)c1nc2ccccn2c1NC1CCCCC1	1	2.1
O=C(Nc1ccccn1)c1cc2c(s1)CCCC2	-3	0.8
O=C(Oc1ccc(Cl)cc1)c1ccc2nsnc2c1	-4	·
COC(=O)c1ccc(COC(=O)C2=NNC(=O)CC2)cc1	-5	·

New compounds follow
SMILES	S aureus helic	MgrA DNA FP
CN(C)C(=O)c1cc(Br)ccc1Cl	5	-1.7
O=C1SCCc2c1n(Cc1ccccc1)c1ccccc21	19	0.3
CC(C)CC1C2CN(Cc3ccccc3)CC=C2C(C#N)=C(N)C1(C#N)C#N (centres undefined)	-61	19
C=CCSc1nc2c(cc1C#N)C(=O)CC(C)(C)C2	19	·
O=C1CC2(CCCC2)C(=O)N1c1ccc(I)cc1	·	-0.6
COC(=O)c1ccc(/C=N/NC(N)=S)n1-c1ccc(F)cc1	-28	·
Cc1noc(C)c1COc1ccc(/C=N/NC(=S)NC(C)(C)C)cc1	-10	·
Cc1ccc(N2C(=O)CC(N3CCN(c4cccc(C)c4C)CC3)C2=O)cc1Cl (centres undefined)	-1	·
COc1ccc(OC)c(N=c2oc3cc(O)ccc3cc2C(=O)Nc2ccccn2)c1	-2	1.4
C/C(=N\O)c1ccc(-n2ccnc2)cc1	·	-1.0
NS(=O)(=O)c1ccc(Sc2ccccc2)c([N+](=O)[O-])c1	·	0.4
CCOC(=O)CSc1nnc(CNC(=O)c2cccs2)n1C	14	-0.9
CC1(C)CC(CC(N)=O)(c2ccccc2)CCO1 (centres undefined)	2	-4.2
